# Compound activity as filed in PubChem BioAssay.
# Bead autofluor: compound fluorescence in toxin protease inhibitor counterscreen | compound autofluorescence counterscreen, microsphere flow cytometry; stronger effect = higher value | fluorescence intensity (concentration not given with the values) | actives 3.1% (n = 360,000);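 active means at least 3 SD above the mean of all compounds, about 16000 in these data; inconclusive means too few beads counted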;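 further: 100 nL of 1 mM stock went into each well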
# PrP 5UTR inh: inhibition of PrP 5' UTR reporter expression. actives 0.35% (n = 340,000). cell-based PrP 5' UTR mRNA reporter, plate reader. inhibition, % (test concentration not listed). AID 488862;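 active means every replicate at 50% or more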;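 further: 0 = median of the neutral control wells; tested in H4 reporter cells; numbers are from one replicate; inactives centre near -14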
# RN4220 kill: kills Staphylococcus aureus RN4220; S. aureus RN4220 growth, OD600, 16 h; inhibition, % (no concentration beside the values); actives 0.33% (n = 330,000);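 active means z-score of -3 or lower and OD600 up to 0.18 on both plates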;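 further: plate controls were untreated cells for no effect and reference antibiotic for full effect; stock transfer was 100 nL into about 80 µL; one replicate is shown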
# Mtb hypoxia inh: Mtb hypoxia fluorescent reporter inhibition | AID 1159583 | actives 0.1% (n = 300,000) | M. tuberculosis hypoxia-regulated fluorescent reporter, fluorescence | fluorescence inhibition, % (no concentration beside the values);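 active means 35 to 45% if threefold the growth effect, above 45% if 1.5-fold the growth effect; inactive means the rest, general growth blockers included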;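 further: wells of about 50 µL received 100 nL stock; 0% = vehicle wells and 100% = reference inhibitor wells; whole bacteria with a GFP reporter of the hypoxia response; strong numbers were not always called active; many hits fall short of the cut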
# Sa ugtP lethal: growth inhibition of S. aureus ugtP deletion strain. S. aureus RN4220 ugtP deletion, OD600 growth, 16 h; some inactives read as strong as hits. growth inhibition, % (no concentration beside the values). actives 0.54% (n = 330,000);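 active means z-score under -3 and OD600 up to 0.15 on both plates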;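 further: plate controls were untreated wells for no effect and antibiotic for full effect; wells of about 80 µL received 100 nL stock; the first replicate is given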
# BJeLR viability: BJeLR cell viability loss; BJeLR (HRASV12) viability, CellTiter-Glo ATP luminescence, 48 h; reference of the scale not given here; inhibition, % (concentration not given with the values); actives 0.17% (n = 300,000);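 active means replicate mean above 50%; inconclusive means above 50% but judged a plate artefact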;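 further: 50 nL library stock added to about 25 µL; numbers are from one replicate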
# Mtb hypoxia inh growth: second read-out of Mtb hypoxia inh, no call of its own (marks repeat the call); growth inhibition, %; measured here: M. tuberculosis growth (absorbance);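 0% = vehicle and 100% = reference antibiotic; read after six days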
# * hit, by the source's call; ? = inconclusive; . = no result given.
SMILES,Bead autofluor,PrP 5UTR inh,RN4220 kill,Mtb hypoxia inh,Mtb hypoxia inh growth,Sa ugtP lethal,BJeLR viability
O=C(CN1CCN(S(=O)(=O)c2ccc(F)c(F)c2)CC1)Nc1ccccc1C(=O)NC1CC1,3873,-21,2.7,-7,-1,3,.
CC(C)(C)n1nc2c(c1NC(=O)c1c(F)cccc1F)CS(=O)(=O)C2,5412,-15,0.6,3,0,-5,10
CCN(CC(=O)NCc1cccs1)C(=O)c1ccc(S(=O)(=O)Nc2ccccc2OC)cc1,?,-7,5.6,3,6,1,.
CCN(CC)CC(=O)c1c[nH]c2ccc(C)cc12,6904,-23,-2.6,.,.,5,-2
Cc1c(C(=O)NCC2CCCO2)oc2ccc(Br)cc12 (centres undefined),.,-58,0.3,4,3,-6,-7
COc1cccc(C(=O)NN=Cc2ccc(OC3CSC3)cc2)c1,.,.,14,-3,5,7,.
Cc1ccccc1Nc1nc(N)nc(COC(=O)[C@@H](NC(=O)c2ccccc2Cl)C(C)C)n1,?,2,4.9,-3,-3,-1,4
CC(=O)c1c(C)oc(C)c1CSCc1ccc(C(=O)O)o1,3009,-16,-0.6,7,2,-7,14
COc1ccccc1CCC(=O)OCC(=O)Nc1cccc(S(=O)(=O)N2CCCCC2)c1,?,-12,-4.0,-9,-3,-7,4
Cc1c(C)[n+](=O)c(C)c(C)n1[O-],3654,-27,2.7,23,14,6,.
CCOc1nc(Nc2ccc(OC)c(Cl)c2)nc(OCC)n1,3542,-38,8.4,4,16,-14,2
CCN(CC)C(=O)COc1ccc2oc(-c3ccco3)cc(=O)c2c1,2606,-19,6.4,11,0,-9,-3
Cc1cccc(NC(=O)CCc2c(C)nn(-c3ccc(N4CCCCC4)nn3)c2C)c1,5535,-33,3.7,-5,-5,0,-9
COc1ccc(NC(=O)CC2Nc3cc(C)c(C)cc3NC2=O)c([N+](=O)[O-])c1 (centres undefined),2038,-8,.,.,.,.,7
Cc1ccc(C(=O)N/C(=C\c2cccs2)C(=O)NCCCn2ccnc2)cc1,2647,2,3.7,8,4,2,-7
O=C(NCc1ccccn1)C1COc2ccccc2O1 (centres undefined),4366,6,3.1,.,.,2,-3
Cc1cc(C)nc(NN=Cc2ccncc2)n1,.,.,-1.4,14,-6,15,.
COc1cccc(NC(=O)c2c(C)nn(-c3ccccc3)c2Cl)c1,3716,-46,-0.8,16,10,8,-3
COc1ccc2[nH]c(C(=O)NCCc3ccccc3)cc2c1,.,.,-0.4,18,-4,7,-7
CCCCn1nc(NC(=O)c2cccs2)c2cc3cc(OC)ccc3nc21,2800,-34,-14,.,.,-1,-3
Cc1ccccc1-n1ncc2c1CC(C)(C)CC2NC(=O)c1ccncc1 (centres undefined),?,-18,1.8,11,8,6,3
CCN(CC)C(=O)c1ccc(C(=O)Nc2ccc(F)cc2)cc1,3919,-2,-0.9,6,12,-15,.
Cc1noc(C)c1S(=O)(=O)N(CC(=O)NCCc1ccccc1)c1ccc(C(C)C)cc1,5848,-15,3.1,1,-3,0,-16
CCOc1ccc(Nc2nc(N(C)c3ccccc3)nc(N)c2[N+](=O)[O-])cc1,4177,-60,-3.6,14,4,10,20
C=C(C)C1CC=C(C)C(=NNC(=O)CCC(=O)Nc2ccccc2Cl)C1 (centres undefined),.,.,-2.2,-4,-3,-9,.
# The list continues.
SMILES,Bead autofluor,PrP 5UTR inh,RN4220 kill,Mtb hypoxia inh,Mtb hypoxia inh growth,Sa ugtP lethal,BJeLR viability
O=C(CSc1nnc(-c2c[nH]c3ccccc23)n1-c1ccc(F)cc1)NCc1ccco1,7953,0,1.0,10,-3,0,6
CCOc1ccccc1NC(=O)c1ccc(Cl)c(NC(=O)CC(c2ccccc2)c2ccccc2)c1,8846,-14,-2.3,5,7,11,-1
COc1ccc(CN2CCOCC2)cc1Br,23516*,-15,7.1,15,3,3,16
COc1ccc(-c2csc(Nc3cccnc3)n2)cc1OC,3335,5,0.1,4,6,0,-8
CCOC(=O)c1c(NC(=O)c2nn(CC)cc2Br)sc(C)c1C,10321,-22,5.6,3,6,7,-14
COCCNC(=O)C(c1cccs1)N(CCc1ccccc1)C(=O)Cn1nnc2ccccc21 (centres undefined),2278,-4,3.3,5,1,6,-2
Cc1ccc(C)c(OCCCN2CCc3ccccc3C2)c1,3266,-11,4.9,8,13,4,0
O=c1c2ccccc2nc(-c2ccccc2)n1-c1nccs1,7610,-27,10,-5,-2,5,-5
O=C1/C(=C/c2ccc([N+](=O)[O-])cc2)C=C(c2ccccc2)N1c1ccc(O)cc1,22121*,-6,-1.4,5,5,-13,-4
CN(C)/C=C/C(=O)c1cccc(Oc2ncccn2)c1,4491,-13,.,.,.,.,-1
O=C(NNC(=O)C1CCCO1)c1ccc(Cl)cc1 (centres undefined),4010,-3,3.4,9,21,2,-3
O=C(CN1C(=O)CCC1=O)c1ccc(-c2ccccc2)cc1,2438,-24,2.1,-7,1,-6,-3
COc1ccc(-n2c(SCc3ccc(C#N)cc3)nnc2-c2ccccn2)cc1,4003,-5,-1.7,5,3,1,-2
CCOC(=O)c1cc(CC)sc1NC(=O)COC(=O)C1CCC1,5715,-4,3.3,18,10,8,1
O=C(Cn1cc2c(n1)CCCCC2)Nc1c(F)cc(F)cc1Br,3763,4,1.6,9,-3,5,-8
COc1ccc(NC(=O)COc2ccccc2F)cc1S(=O)(=O)N1CCCCC1,4029,-31,1.4,9,-3,-2,3
CS(=O)(=O)c1ccc2nc(NC(=O)CN3C(=O)NC4(CCCC4)C3=O)sc2c1,6139,-21,1.3,-1,1,-4,-1
N=c1c(C(=O)NCC2CCCO2)cc2c(=O)n3ccccc3nc2n1Cc1ccccc1Cl (centres undefined),6317,-40,.,.,.,.,-6
O=C(NC(=S)N1CCOCC1)c1ccccc1Cl,5639,-36,6.0,7,0,5,8
Nc1c(N=Nc2cccc(Cl)c2)c(=O)[nH]n1-c1ccccc1,2238,-7,.,.,.,.,0
O=C(Cc1ccccc1F)Nc1nc(-c2cccnc2)cs1,4689,-3,5.7,13,13,7,-3
CCOC(=O)c1cn(CC(=O)Nc2ccc3c(c2)OCCO3)nn1,10127,-21,5.6,-1,9,1,8
CC#CCc1cc2ccccc2c(=O)o1,4350,0,9.8,.,.,-12,-1
CCC(=O)N(Cc1cc2cccc(C)c2[nH]c1=O)c1ccccc1OC,10484,-4,3.9,16,7,-1,-2
N/C(=N\OC(=O)CC1CCCCC1)c1ccccc1,2554,-52,4.2,19,15,13,-5

# Looked up above.
# O=C1/C(=C/c2ccc([N+](=O)[O-])cc2)C=C(c2ccccc2)N1c1ccc(O)cc1 in Sa ugtP lethal shows -13
# COc1ccc2[nH]c(C(=O)NCCc3ccccc3)cc2c1 in RN4220 kill shows -0.4
# Cc1ccc(C(=O)N/C(=C\c2cccs2)C(=O)NCCCn2ccnc2)cc1 in Mtb hypoxia inh shows 8

# Carrying on.
SMILES,Bead autofluor,PrP 5UTR inh,RN4220 kill,Mtb hypoxia inh,Mtb hypoxia inh growth,Sa ugtP lethal,BJeLR viability
CN1CCC(=NNc2ccc(S(=O)(=O)N3CCOCC3)cc2[N+](=O)[O-])CC1,2237,-7,.,.,.,.,1
CCOc1ncccc1C(=O)NCCc1ccc(Cl)cc1,3976,-8,9.2,20,14,5,-3
Clc1ccc(C=NNc2nnc(Cl)c3ccccc23)cc1,.,.,2.9,11,-1,-3,.
COCCC(=O)N1CCC(Oc2ccc(C(=O)NCCc3cnn(C)c3)cc2)CC1,4002,0,0.7,-8,-9,3,-3
CC(=NNc1nc(-c2ccccc2)c(CC(=O)O)s1)c1ccccc1,.,.,16,7,9,7,.
N#Cc1cc2c(nc1SCC(=O)Nc1sc3c(c1C#N)CCC3)CCCCCC2,3718,-3,12,3,-5,1,4
Cn1c(SCC(=O)NCc2ccco2)nnc1-c1c[nH]c2ccccc12,5247,-19,-7.8,1,22,-7,10
COc1ccc(C2CC(=O)n3c(nc4ccccc43)S2)cc1OC (centres undefined),3174,-11,7.3,-1,-3,1,-11
CCCCCCCCOC1OC(CO)C(O)C(O)C1NC(C)=O (centres undefined),4292,-7,3.3,-3,3,2,-9
COC(=O)c1[nH]c2ccc(Cl)cc2c1NC(=O)c1ccccc1[N+](=O)[O-],2564,-14,2.5,10,-5,2,-8
COc1ccc(C2(c3ccc(OC)cc3)NC(=O)N(CC(=O)Nc3ccc(N4CCOCC4)cc3)C2=O)cc1,5346,1,-0.7,-1,3,-1,7
C[C@@H](C(=O)NCc1ccccc1)[C@H]1C[C@]1(C)[C@H](NC(=O)OCc1ccccc1)c1ccccc1,3121,-7,.,.,.,.,-3
CC(Sc1nnnn1C)C(=O)NC(=O)NC1CCCCC1 (centres undefined),4624,-18,4.5,17,8,-3,1
CCOc1ccc(CCNC(=O)CCc2nnc3ccc(N4CCCCC4)nn23)cc1OCC,7219,-18,-7.0,4,11,-3,-3
COc1ccc([N+](=O)[O-])cc1NC(=O)C(C)OC(=O)CN1C(=O)C2CC=CCC2C1=O (centres undefined),.,3,1.4,8,0,5,-3
CCCSCCCNC(=O)c1ccccc1NC(=O)C1=CSCCO1,4989,-19,6.7,-5,-1,-6,-8
CCOC(=O)C(NC(C)=O)C(=O)Nc1ccc(C(C)C)cc1 (centres undefined),1927,2,1.3,15,7,7,-5
O=C1NN(c2ccc(Cl)cc2)C(=O)/C1=C\c1ccc(-c2cccc(C(=O)O)c2)o1,2884,-85,2.6,2,5,3,.
O=C(C1CCN(S(=O)(=O)c2cnc[nH]2)CC1)N1CCN(Cc2ccc3c(c2)OCO3)CC1,.,-17,1.8,18,12,-3,.
Cc1cc(C(=O)N2CCN(S(C)(=O)=O)CC2)cs1,7834,-6,2.8,7,3,7,0
Cc1ccc(COc2ccsc2C(=O)NNC(N)=S)cc1,4739,2,-1.2,5,-3,4,-3
COc1cc(C(=O)NCC2CCCO2)cc(OC)c1OC (centres undefined),7780,-9,-3.6,0,0,2,2
CC1=Nn2c(nnc2-c2ccc(F)cc2)SC1,10045,-30,2.1,18,5,-4,-4
CCn1c(SCC(=O)N/N=C/C=C/c2ccco2)nnc1-c1ccccc1,2341,10,.,.,.,.,5
CNS(=O)(=O)c1cccc(C(=O)OCC(=O)NC2CCCC2)c1,3846,-16,4.2,1,5,6,-4

# Next part, starting with the last 2 of the part before.
SMILES,Bead autofluor,PrP 5UTR inh,RN4220 kill,Mtb hypoxia inh,Mtb hypoxia inh growth,Sa ugtP lethal,BJeLR viability
CCn1c(SCC(=O)N/N=C/C=C/c2ccco2)nnc1-c1ccccc1,2341,10,.,.,.,.,5
CNS(=O)(=O)c1cccc(C(=O)OCC(=O)NC2CCCC2)c1,3846,-16,4.2,1,5,6,-4
Cc1ccc(S(=O)(=O)N2[C@@H](c3ccc(C#N)cc3)C(C(=O)O)=C[C@H]2CC2CCCC2)cc1,4294,4,7.3,-5,-3,-11,.
CN(Cc1ccccc1)C(=O)[C@@H]1CCCN1S(=O)(=O)c1ccc(Cl)cc1,3624,-22,3.5,-3,7,11,3
C[C@]12CCC(O)CC1CCC1C2CC[C@]2(C)C(c3cc(C(F)(F)F)n[nH]3)CCC12 (some centres undefined),2932,3,.,.,.,.,4
N#Cc1c(N2C(=O)C3C4C=CC(C4)C3C2=O)sc2c1CCC2 (centres undefined),3532,-6,1.5,.,.,2,-1
CC(OC(=O)c1ccc(S(=O)(=O)N(C)c2ccccc2)cc1)C(=O)NCCC1=CCCCC1 (centres undefined),2060,-28,5.2,3,7,-6,-2
Clc1cccc(Cl)c1CON/C=N/c1ncnc2sccc12,2094,-27,.,.,.,.,8
CN1C(=O)CCC1c1cccnc1 (centres undefined),.,.,7.0,3,0,1,.
COc1cc(/C=C/C(=O)Nc2nc3ccc(S(=O)(=O)N(C)C)cc3s2)cc(OC)c1OC,10177,-19,.,.,.,.,1
O=[N+]([O-])c1ccc(-c2ccc(/C=N/n3cnnc3)o2)c(Br)c1,3078,-6,.,.,.,.,4
CCC(CC)C(=O)NCCNC(=O)C(CC)CC,3762,-13,3.9,10,5,7,2
CC(Oc1ccc(Cl)cc1Cl)c1nc(-c2ccc(NC(=O)c3ccncc3)cc2)no1 (centres undefined),21041*,-4,-11,-3,1,-21,17
C/C(=N/OC(=O)c1c(-c2c(Cl)cccc2Cl)noc1C)c1cnccn1,12057,-9,.,.,.,.,-1

# 2 entries from above, reformatted.
SMILES | Bead autofluor | PrP 5UTR inh | RN4220 kill | Mtb hypoxia inh | Mtb hypoxia inh growth | Sa ugtP lethal | BJeLR viability
COc1ccc(CN2CCOCC2)cc1Br | 23516* | -15 | 7.1 | 15 | 3 | 3 | 16
COc1ccc(-c2csc(Nc3cccnc3)n2)cc1OC | 3335 | 5 | 0.1 | 4 | 6 | 0 | -8
